High-throughput results (PubChem BioAssay)
Anthrax LT inh: inhibitors of anthrax lethal toxin internalization; Cells, anthrax lethal toxin internalization, FRET ratio (460/530); Potency, µM (highest dose often 40 µM), inactives show top-dose activity change, negative = inhibition, most hits filed as inhibitors; 0.67% of 70,000 active; AID 912; active = well fitted falling ratio curve with the 530 nm signal flat; inconclusive = other ratio curves, or a change in one channel alone; inactive = flat curves in the ratio and both channels; the % refers to the ratio; further: on the % scale 0 is the no-effect control and ±100 the full control effect; nearly all actives have a fitted effect of over 50% in size; tested in ME-180 cells; beta-lactamase reporter
Prx2 Sm inh: blocks S. mansoni peroxiredoxin 2 enzymatic activity. S. mansoni Prx2 activity coupled to TGR/GSH (TGR is thioredoxin glutathione reductase), NADPH fluorescence loss, qHTS; some inactives read as strong as hits. Potency, µM. 0.07% of 65,000 active. AID 448; active means full or partial inhibition curve with a strong effect at the top dose; inconclusive means weaker partial or single-point curve; inactive means no accepted curve; further: series up to 57 µM; many of its hits are not listed in these tables
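Coupled assay in which S. mansoni TGR passes NADPH reducing equivalents via glutathione to Prx2, which reduces H2O2. Compounds were preincubated 15 min at room temperature with 25 nM TGR/50 nM Prx2 mix. Kinetic NADPH fluorescence loss (ex 365/em 450 nm) was monitored.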
* marks the source's active call; other numbers are inactive results; ? = inconclusive; nt = not tested or not shown; [ ] = another dose, or the depositor's remark. Potency means the concentration at half of the fitted maximal effect.

Preview:
molecule | Anthrax LT inh | Prx2 Sm inh
c1ccc2c(-c3nc(-c4ccncc4)no3)cccc2c1 | -35% | >57
CC1CCN(C(=O)Cn2c(SCC(=O)Nc3nccs3)nc3ccccc32)CC1 | ? | >57
O=C(O)CCC(=O)N1CCN(c2cccc(Cl)c2)CC1 | -25% | >57
Cc1cccc(-n2ncc3c(N4CCc5ccccc54)ncnc32)c1 | 1% | >57
O=C(Cc1cccs1)N1CCCC(c2nc3c(nnn3Cc3ccc(F)cc3)c(=O)[nH]2)C1 (centres undefined) | -5% | >57
COc1ccc(OC)c(C(c2nnnn2C2CCCC2)N2CCN(c3ccccc3)CC2)c1 (centres undefined) | -20% | >57
CCN1C(=O)CC(N2CCN(C(c3ccccc3)c3ccccc3)CC2)C1=O (centres undefined) | 19% | >57

This part in full, repeating the preview:
molecule | Anthrax LT inh | Prx2 Sm inh
c1ccc2c(-c3nc(-c4ccncc4)no3)cccc2c1 | -35% | >57
CC1CCN(C(=O)Cn2c(SCC(=O)Nc3nccs3)nc3ccccc32)CC1 | ? | >57
O=C(O)CCC(=O)N1CCN(c2cccc(Cl)c2)CC1 | -25% | >57
Cc1cccc(-n2ncc3c(N4CCc5ccccc54)ncnc32)c1 | 1% | >57
O=C(Cc1cccs1)N1CCCC(c2nc3c(nnn3Cc3ccc(F)cc3)c(=O)[nH]2)C1 (centres undefined) | -5% | >57
COc1ccc(OC)c(C(c2nnnn2C2CCCC2)N2CCN(c3ccccc3)CC2)c1 (centres undefined) | -20% | >57
CCN1C(=O)CC(N2CCN(C(c3ccccc3)c3ccccc3)CC2)C1=O (centres undefined) | 19% | >57
CCN1CCN(Cc2ccc(NC(=O)Nc3ccccc3Cl)cc2)CC1 | -18% | >57
COc1cc(NC(=O)C(C)C)ccc1NC(=O)c1ccco1 | 0% | >57
CCn1c(C(=O)Nc2ccsc2C(=O)OC)cc2sc(Cl)cc21 | -26% | >57
O=C(O)C1CCCCC1C(=O)Nc1ccc(Cl)cc1 (centres undefined) | -13% | >57
O=S(=O)(NCC1OCCc2ccccc21)c1ccc(S(=O)(=O)N2CCOCC2)cc1 (centres undefined) | 2% | >57
O=C(c1cccc(C(=O)N2CCc3ccccc32)n1)N1CCc2ccccc21 | -6% | >57
Cc1ccc(S(=O)(=O)N2CCCC2C(=O)Nc2nccs2)cc1 (centres undefined) | -19% | nt
O=C(Oc1ccc2c(c1)CN(Cc1ccccc1)CO2)c1ccccc1 | -24%[8 µM] | >57
CCOC(=O)c1c(=O)n(O)c2ccc(C)cc2[n+]1[O-] | nt | >57
O=C(CCCc1c[nH]c2ccccc12)N1CCN(c2ccc(N3CCOCC3)nn2)CC1 | 1% | >57
Cc1csc(NC(=O)CCC(=O)N(CC(=O)NC2CCCC2)Cc2ccco2)n1 | -17% | >57
COc1ccccc1N1CCN(C(=O)C(NS(=O)(=O)c2cccs2)c2ccccc2)CC1 (centres undefined) | -18% | >57
COc1ccc(-c2ccc(SCC(=O)NCc3ccco3)nn2)cc1OC | -2% | >57
COc1ccc(C(=O)Nc2ccccc2-c2nnn(CC(=O)NCc3ccco3)n2)cc1 | ? | >57
O=C(Nc1ccc(F)cc1F)c1cc(-c2ccco2)on1 | -23% | >57
COc1ccccc1N=C1SC(C)CN1C(=O)C1CCC1 (centres undefined) | 3% | >57
Cc1ccc(N2C(=O)c3ccccc3C2=O)cc1Cl | ? | >57
Cc1noc(C)c1CSCC(=O)NC1=NCCS1 | -6% | >57
O=C(c1c(F)cccc1F)N1CCC(O)(c2cccnc2)CC1 | 6% | >57
COc1cc(CNc2ccccc2SC)ccc1O | 6% | nt
O=c1oc2ccccc2c2c1ncn2CCN1CCOCC1 | -8% | >57
Cc1sc2ncnc(NCC(c3ccco3)N(C)C)c2c1C (centres undefined) | -4% | >57
CCC(Sc1nncn1C)C(=O)Nc1nnc(-c2ccccc2Cl)s1 (centres undefined) | 6% | >57
C=CCOc1c(OC)cc(Cl)cc1C1NC(=O)NC(C)=C1C(C)=O (centres undefined) | ? | >57
COc1cc(C2c3c(oc4c(C)cc(C)cc4c3=O)C(=O)N2Cc2cccnc2)cc(OC)c1OC (centres undefined) | ? | >57
COc1ccccc1CNc1cc(-c2ccccc2CN(C)C)ncn1 | ? | >57
Cc1noc(C)c1-c1cc(Nc2ccccc2)ncn1 | ? | >57
O=C(CN(c1ccc(F)cc1)S(=O)(=O)c1ccc2c(c1)OCCO2)NCC1CCCO1 (centres undefined) | 0% | nt
CCc1nc(SCC(=O)Nc2ccc3c(c2)OCCO3)c2oc3ccccc3c2n1 | 8% | >57
CC(=NCCCn1ccnc1)c1c(O)n(C)c(=O)n(C)c1=O | 2% | >57
COc1cc(-c2c(C#N)c(N)nc3c2CCCC3)ccc1O | 6% | >57
Cc1noc(C)c1COC(=O)c1cc(=O)[nH]c2ccccc12 | -4% | >57
Cc1ccc(N2C(=O)SC(N(CC(=O)O)c3cccc(C)c3)C2=O)cc1 (centres undefined) | -9% | >57
CCCC(=O)Nc1cnc(NC(=O)c2cccc(F)c2)cc1C | 1% | >57
COCCn1nnnc1C(c1ccccc1OC)N1CCc2ccccc2C1 (centres undefined) | -20% | >57
COC(=O)C1=C(C)NC(C)=C(C(=O)OC)C1c1ccc(NC(C)=O)cc1 | 1% | >57
Cc1ccc(C)c(Cn2cnc3c(nnn3-c3ccc(F)cc3)c2=O)c1 | -14% | >57
c1ccc(-n2ncc3c2ncn2nnnc32)cc1 | -22% | >57
CCCC(=O)c1ccc(N2CCN(C(=O)c3ccccc3Br)CC2)c(F)c1 | 13µM* | >57
CCN1C(=O)C(O)(CC(=O)c2ccc3c(c2)OCCO3)c2ccccc21 (centres undefined) | 14% | >57
Cc1nnc(SCSc2nnc(C)s2)s1 | 11% | >57
CC(C)NC(=O)N1CCC2(CC1)CCN(C(=O)c1csnn1)CC2 | -15% | >57
COc1ncnc2c1NC(=O)CS2 | nt | >57
COc1cc(C2C(C#N)=C(C)NC3=C2C(=O)CC(C)(C)C3)ccc1OCCO (centres undefined) | 9% | nt
COc1ccc(N2CCN(C(=O)CSc3nnc(-c4cccnc4)n3-c3ccccc3)CC2)cc1 | 10% | >57
Cc1cccc(N2C(=O)C3C4C=CC(C4)C3C2=O)c1 (centres undefined) | 17% | >57
COc1ccc(CC2CCOC2=O)cc1 (centres undefined) | -1% | >57
COc1cccc(OC)c1C(=O)Nn1c(C2CCC2)nc2ccccc2c1=O | 4% | >57
Cc1cc(CN(C)C)c(O)c(C2(C)CCCCC2)c1 | ? | >57
C(=N\n1cnnc1)/c1cn(Cc2ccccc2)c2ccccc12 | -2% | >57
CC1CN(S(=O)(=O)Cc2ccccc2)CC(C)O1 (centres undefined) | -1% | >57
O=C(CCC(=O)N(CC(=O)NC1CCCC1)C1CCCC1)Nc1ccccn1 | 10% | >57
Cc1ccccc1-n1nc2c(c1NC(=O)c1ccc(Br)o1)CSC2 | -2% | >57

(listing goes on)
Order of values: Anthrax LT inh	Prx2 Sm inh
- COc1cccc(C(=O)Nc2ccccc2N2CCCC2)c1
 : nt	>57
- NCCC[C@@H](CC(=O)N[C@@H]1CCNC[C@H]1C(=O)N[C@H](CC(=O)N[C@@H](CCC(=O)O)CC(=O)O)Cc1c[nH]c2ccccc12)NC(=O)C[C@H](CO)NC(=O)[C@@H]1CNCC[C@H]1N
 : -7%	>57
- CC1CCCC(C)N1C(=O)CSc1nc2ncnc(N)c2[nH]1 (centres undefined)
 : 5%	?
- COc1ccc(CCNCc2ccccn2)cc1OC
 : nt	>57
- CCOc1cc(C2C(C#N)=C(N)SC(N)=C2C#N)ccc1OCCN1CCOCC1
 : ?	>57
- COc1ccc(-c2cc(C(=O)NCc3cccnc3)no2)cc1
 : 16%	>57
- COc1ccc(NC(=O)C2CCN(C(=O)c3ccccc3)CC2)c(OC)c1
 : -14%	nt
- CCCn1c(=O)c2ccccc2n2c(SCCOc3ccc(Cl)cc3)nnc12
 : ?	>57
- CCc1ccc(-c2nc(-c3ccncc3)no2)cc1
 : -23%	nt
- CCc1ccc(OCC(=O)Nc2ncc3c(n2)CC(C)(C)CC3=O)cc1
 : ?	>57

Three entries picked at random from the list so far:
Order of values: Anthrax LT inh	Prx2 Sm inh
- COc1ccc(CCNCc2ccccn2)cc1OC
 : nt	>57
- CCc1ccc(OCC(=O)Nc2ncc3c(n2)CC(C)(C)CC3=O)cc1
 : ?	>57
- COc1ccc(-c2cc(C(=O)NCc3cccnc3)no2)cc1
 : 16%	>57

Next section.
Order of values: Anthrax LT inh	Prx2 Sm inh
- O=C(NCc1n[nH]c(=S)n1-c1ccc(F)cc1)c1ccc(S(=O)(=O)N2CCCC2)cc1
 : -6%	>57
- CCOc1ccc(OCC)c(S(=O)(=O)NCc2ccc3c(c2)OCO3)c1
 : -11%	>57
- O=C(O)c1cccc(-n2cccc2/C=N/O)c1
 : -14%	>57
- C(=NC12CN3CN(CN(C3)C1)C2)c1ccc2c(c1)OCO2
 : 6%	>57
- N#Cc1ccc(CN2CC3(CCN(C(=O)c4cccc(F)c4)CC3)C2)cc1
 : -5%	>57
- CC(C)CSc1nc2c(c(=O)[nH]c(=O)n2C)n1CCc1ccccc1
 : -6%	>57
- COc1ncc2nc(-c3cn(C)c4ccccc34)c(=O)n(-c3ccccc3)c2n1
 : ?	>57
- Brc1cccc(-c2ccccc2)c1
 : -27%	nt
- COC(=O)c1cccc(NCN2C(=O)c3ccccc3C2=O)c1
 : 3%	>57
- CCOc1ccc(N2CCn3c2nc2c3c(=O)n(CCc3ccccc3)c(=O)n2C)cc1
 : -7%	>57
- CC(=O)OC[C@H]1O[C@@H](O/N=C(\C)CCN2CCCCc3nc(C)c(C)cc32)[C@H](OC(C)=O)[C@@H](OC(C)=O)[C@H]1OC(C)=O
 : -8%[8 µM]	nt
- COC(=O)c1ccccc1NC(=O)Nc1cccs1
 : ?	>57
- Cc1ccc2[nH]c(=O)c(CN(Cc3ccccc3)Cc3nnnn3C3CCCC3)cc2c1
 : -27%	>57
- CC(C)c1c(O)nc(SCCN(C)C)[nH]c1=O
 : -10%	>57
- COc1ccc(CCNS(=O)(=O)c2cccc(S(=O)(=O)N3CCCC3)c2)cc1OC
 : -8%	>57
- COC(=O)c1cccc(NC(=O)CSc2ncn[nH]2)c1
 : -3%	>57
- Cn1cccc1Cc1nnc(SCC(=O)Nc2ccc3c(c2)OCO3)n1CCc1ccccc1
 : -21%	>57
- OCc1nc2ccccc2n1CCCOc1ccc(Br)cc1
 : -27%	>57
- Cc1ccc(Cc2c(C)nc3nc(SCC(=O)NCc4ccco4)nn3c2C)cc1
 : -30%	>57
- CN(CCC#N)C(=O)CSc1ncnc2sc(-c3ccccc3)cc12
 : -20%	>57
- Cc1ccc(C)c(Cn2nnc3c(=O)[nH]c(C4CCCN(C(=O)C5CCC5)C4)nc32)c1 (centres undefined)
 : -6%	>57
- Nc1nc(N)c(N=Nc2ccc(C(=O)O)c(O)c2)c(N)n1
 : -8%[8 µM]	>57
- O=C(O)C1CCCN1S(=O)(=O)c1ccc(Cl)c(Cl)c1 (centres undefined)
 : -12%	>57
- COc1cccc2cc(C(=O)n3ccc(C)n3)c(=O)oc12
 : -9%	>57
- COc1cccc(NC(=O)CSc2nnc(Cc3cccn3C)n2-c2ccc(F)cc2)c1
 : -1%	>57
- Cc1ccc(-c2nnc(N3CCCCC3)c3ccccc23)cc1S(=O)(=O)N1CCN(C)CC1
 : 5%	nt
- COc1ccc(C2CC(=O)c3cnc(N4CCN(Cc5ccccc5)CC4)nc3C2)cc1 (centres undefined)
 : ?	>57
- O=C(Cn1c(NCCCO)nc2ccccc21)c1ccc(Br)cc1
 : -2%	>57
- CC(=O)SCC(=O)N=c1sc2cc(F)ccc2n1C
 : 0%	>57
- CCc1cc2c(NCCO)ncnc2s1
 : -20%	>57
- COc1cccc(C(=O)NC(C)C(c2cccs2)N2CCN(C)CC2)c1 (centres undefined)
 : nt	>57
- CCN(CC)c1ccc(NC(=O)C2CCCN(S(=O)(=O)c3cnc[nH]3)C2)c(C)c1 (centres undefined)
 : -10%	>57
- COCC(=O)NC1CC2CCCC(C1)N2Cc1ccccc1 (centres undefined)
 : -7%	>57
- CC(C)c1nc2oc3c(NCc4ccccn4)ncnc3c2c2c1COC(C)(C)C2
 : nt	>57
- COc1ccc(CCNC(=O)CSc2cc(=O)[nH]c(N)n2)cc1OC
 : 1%	>57
- OCCN1C2CCC1CC(O)(c1ccc(F)cc1)C2 (centres undefined)
 : -10%	>57
- COc1ccccc1NC(=O)CCC(=O)Nc1ccccc1OC
 : 5%	>57
- COc1cc2c(cc1OC)C(c1ccsc1)CC(=O)N2 (centres undefined)
 : -15%	>57
- Cc1cc(/N=C/C=C2\N(C)c3ccccc3C2(C)C)n(CCC#N)n1
 : -7%	>57
- O=C(COc1ccc(S(=O)(=O)N2CCCC2)cc1Cl)N1CCN(c2ccccc2)CC1
 : ?	?
- O=c1c(-c2ccc(F)cc2)nc2cnc(N3CCOCC3)nc2n1Cc1cccs1
 : ?	>57
- CCCSc1nnc(Cn2c(=O)sc3ccccc32)n1-c1ccccc1
 : -25%	>57
- CCCCN1CC(COc2ccccc2)OC1=O (centres undefined)
 : -7%	>57
- COc1ccc(-c2n[nH]c(C)c2-c2cnn(-c3ccccc3)c2)c(O)c1
 : ?	>57
- CCCCN1C(=O)NC(=O)C2(Cc3cc(C)ccc3N(C)C2)C1=O (centres undefined)
 : -8%	>57
- Brc1ccc(OCCOCCN2CCOCC2)cc1
 : -13%	nt

These rows are one share of the data (hit frequency here may not be typical).
